total CFTR: total CFTR protein upregulators, primary screen, cell-based, HeLa F508del-CFTR, immunofluorescence, viability (AID 1224863). Cystic fibrosis transmembrane conductance regulator (Homo sapiens). HeLa F508del-CFTR, immunofluorescence total CFTR, 24 h; by the record results were divided by relative cell number; some inactives read as strong as hits. calls, or highest fold increase where a dose series was run. 0.1% of 10,000 active; in the data nearly all actives have a first-pass fold increase above 1.5; a few of its hits are not listed in these tables;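 further: total CFTR protein by anti-CFTR immunofluorescence in fixed cells; first pass at 25 µM or 10 µg/mL by library and series up to twice that; 1 = untreated cells; first-pass hits also needed half or more of the cells alive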
total CFTR fold 25 µM: also measured in total CFTR; calls as there; fold increase; measured here: primary screen single dose 25 uM; library dosed in µM
total CFTR fold 10 ug/mL: recorded beside total CFTR, whose call it bears; fold increase; measured here: primary screen 10 ug/mL
total CFTR viability 25 µM: second read-out of total CFTR, no call of its own (marks repeat the call); viability, %; measured here: primary viability 25 uM; library dosed in µM;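 0% = killed and 100% = untreated cells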
total CFTR viability 10 ug/mL: recorded beside total CFTR, whose call it bears; viability, %; measured here: primary viability 10 ug/mL;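 0% = killed and 100% = untreated cells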
Starred values were filed as active, the others as inactive; i = inactive; / = no result given; & = joins results of further samples.

SMILES	total CFTR	total CFTR fold 10 ug/mL	total CFTR viability 10 ug/mL	others
CN(C)S(=O)(=O)c1ccc(C(=O)Nc2nc3c(s2)CN(C(=O)OC(C)(C)C)CC3)o1	i	0.82	97
CN(C/C=C/c1ccccc1)Cc1cccc2ccccc12	i	/	/	total CFTR fold 25 µM=1.1;total CFTR viability 25 µM=86
CC(C)OCCC(=O)Nc1nccs1	i	1	103
NC(=O)c1ccsc1NC(=O)Cn1ccnc1	i	0.89	99
FC(F)(F)c1ccc(Sc2nnc(C3COc4ccccc4O3)n2-c2ccccc2)nc1 (centres undefined)	i	0.98	78
CCCC1NC(=O)N(CN2CCN(Cc3cccs3)CC2)C1=O (centres undefined)	i	1.1	93
Cc1csc(SC(C)C(=O)N2CCNC2=O)n1 (centres undefined)	i	0.99	101
C=CCn1c(C)nn(CN(Cc2ccc(N(C)C)cc2)C(C)C)c1=S	i	0.99	86
c1ccc(-c2cc(CSc3nnc(C4CCCCC4)o3)no2)cc1	i	1	84
Cc1ccc(-n2nnn(CN3CCN(c4ccc([N+](=O)[O-])cc4)CC3)c2=S)cc1	i	0.96	101
Brc1ccc(N2CCN(Cc3nnnn3C3CC3)CC2)nc1	i	1.1	102
Cc1cccc(CN2CCN(CN3C(=O)C(=O)N(C)C3=O)CC2)c1	i	1.1	112
CCC[C@@H]1O[C@@H]2C[C@H]3[C@@H]4CCC5=CC(=O)C=C[C@]5(C)[C@H]4[C@@H](O)C[C@]3(C)[C@]2(C(=O)CO)O1	i	/	/	total CFTR fold 25 µM=1.2;total CFTR viability 25 µM=85
Cc1cc(C(C)NC(=O)Cn2nnn(-c3cccs3)c2=O)c(C)s1 (centres undefined)	i	1	99
N#Cc1cnc2c(F)cc(Cl)cc2c1Cl	i	0.96	98
C[C@@H](O)[C@@H]1NC(=O)[C@H](CCCCN)NC(=O)[C@@H](Cc2c[nH]c3ccccc23)NC(=O)[C@H](Cc2ccccc2)NC(=O)[C@@H](NC(=O)[C@H](N)Cc2ccccc2)CSSC[C@@H](C(=O)N[C@H](CO)[C@@H](C)O)NC1=O	i	/	/	total CFTR fold 25 µM=0.99;total CFTR viability 25 µM=93
COc1ccc(C(=O)NCc2cccnc2)cc1C(=O)NCc1cccnc1	i	/	/	total CFTR fold 25 µM=1.1;total CFTR viability 25 µM=92
COC(=O)C1=C(C)N(C)C(=O)N(C)C1c1cccc(Br)c1 (centres undefined)	i	0.96	113
COc1cc(-c2oc(-c3ccccc3)cc2-c2nc3ccccc3[nH]2)cc(OC)c1OC	i	0.98	99
CC1(C)CC(=O)c2sc(NC(=O)CCC3CCCCC3)nc2C1	i	1	97
CN(Cc1ccc(F)cc1Cl)S(=O)(=O)Cc1ccc(C#N)cc1	i	0.85	91
COc1ccc(S(=O)(=O)NC2CC(C)CCC2C(C)C)cc1OC (centres undefined)	i	0.87	85
C[C@]12C=CC(=O)N[C@@H]1CC[C@@H]1[C@@H]2CC[C@]2(C)[C@@H](C(=O)Nc3cc(C(F)(F)F)ccc3C(F)(F)F)CC[C@@H]12	i	/	/	total CFTR fold 25 µM=1.1;total CFTR viability 25 µM=97
CC(C)C(C)NC(=O)CC12CC3CC(CC(O)(C3)C1)C2 (centres undefined)	i	1	97
O=c1c2ccccc2nc(SCc2cc(-c3ccco3)on2)n1C1CC1	i	1	67
CC(C#N)Sc1n[nH]c(C(C)(C)C)n1 (centres undefined)	i	1	99
NS(=O)(=O)c1cccc(NS(=O)(=O)c2cccc(Cl)c2Cl)c1	i	1	90
c1ccc(CNC2CCCc3c2cnn3Cc2ccccc2)cc1 (centres undefined)	i	0.93	83
CC1CCCC(NC(=O)C2CCCN(C(=O)N3CCCC3)C2)C1C (centres undefined)	i	1.1	91
O=C(N1CCOCC1)N1CCN(Cn2nc3n(c2=S)CCCCC3)CC1	i	1	95
COCCNc1nc(-c2ccc3c(c2)OCO3)cs1	i	1.1	99
COc1cc(-c2ccc(=O)[nH]n2)ccc1OC(F)F	i	/	/	total CFTR fold 25 µM=0.98;total CFTR viability 25 µM=87
CC(N)(C#N)CCc1ccccc1 (centres undefined)	i	1	106
OC(CNCC1CC1(Cl)Cl)COc1ccc(-c2ccccc2)cc1 (centres undefined)	i	0.94	90
NCc1ccccc1CO	i	0.99	93
COC(=O)C1=C(C)N(C2CC2)C(=S)NC1c1ccccc1 (centres undefined)	i	0.95	92
Cc1ccccc1CSc1nnnn1-c1cccc(C)c1C	i	1	89
O=C(OCc1cc(=O)n2ccccc2n1)c1nccnc1-c1nc2ccccc2s1	i	1	99
N#Cc1ccc(OCCSc2nnc3ccccn23)cc1	i	1	87
NC(=O)c1ccc[n+]([C@@H]2O[C@H](COP(=O)([O-])OP(=O)(O)OC[C@H]3O[C@@H](n4cnc5c(N)ncnc54)[C@H](O)[C@@H]3O)[C@@H](O)[C@H]2O)c1	i	/	/	total CFTR fold 25 µM=1;total CFTR viability 25 µM=95
CCC(=O)OC(OP(=O)(CCCCc1ccccc1)CC(=O)N1C[C@H](C2CCCCC2)C[C@H]1C(=O)O)C(C)C (some centres undefined)	i	/	/	total CFTR fold 25 µM=0.95;total CFTR viability 25 µM=105
CC(N)c1ccc2c(c1)CCC(=O)N2 (centres undefined)	i	0.95	91
O=[N+]([O-])c1ccccc1OCc1cccc2ccccc12	i	0.78	73
CCCCn1c(N)c(N(CCC(C)C)C(=O)CCNC(=O)NC23CC4CC(CC(C4)C2)C3)c(=O)[nH]c1=O	1.4	2.4	100
CSCCC1NC(=O)N(Cc2cc(-c3ccco3)on2)C1=O (centres undefined)	i	1	102
Cc1sc2ncnc(SCCCC#N)c2c1C	i	0.89	86
CN(C(=O)COC(=O)c1cc(=O)c2ccccc2o1)C1CCS(=O)(=O)C1 (centres undefined)	i	1.1	99
CCN1CCC[C@H]1CNC(=O)c1c(OC)ccc(Br)c1OC	i	/	/	total CFTR fold 25 µM=1;total CFTR viability 25 µM=99
Cn1c(SCc2cc(-c3cccs3)on2)nnc1C(F)(F)F	i	1.1	86
CN(C)S(=O)(=O)N1CCN(C(=O)CCc2ccc3c(c2)OCO3)CC1	i	1	91
COc1ccc(NS(C)(=O)=O)c(N)c1	i	1.1	99
CCCc1nc(SCC#N)n[nH]1	i	0.85	74
O=S(CCSc1nccn1-c1cccc(F)c1)c1ccccc1 (centres undefined)	i	1	90
CC1(C(=O)N2CCN(C(=O)Nc3ccc(F)cc3)CC2)CC1(Cl)Cl (centres undefined)	i	1.1	107
Oc1c(Cl)cc(Cl)cc1Sc1cc(Cl)cc(Cl)c1O	i	/	/	total CFTR fold 25 µM=0.85;total CFTR viability 25 µM=79
Cc1cc(C)cc(Oc2cc(CNC(=O)C(C)(C)C)ccn2)c1	i	0.95	88
CC1CN(S(=O)(=O)N(C)CCOc2ccccc2Cl)CC(C)O1 (centres undefined)	i	0.9	89
CCN(CC)CC(=O)Nc1c(C)cccc1C	i	/	/	total CFTR fold 25 µM=1.1&0.89&1.1;total CFTR viability 25 µM=79&94&94
Cn1cnc2c1c(=O)n(CC(=O)N(Cc1nc3ccccc3c(=O)[nH]1)CC1CCCO1)c(=O)n2C (centres undefined)	i	1.1	102
CCCCn1c(N)c(N(CC)C(=O)c2ccc(NC(=O)C3CC3)s2)c(=O)[nH]c1=O	i	0.98	101

Overlap with the part before: 2 entries, followed by the next part.
SMILES	total CFTR	total CFTR fold 10 ug/mL	total CFTR viability 10 ug/mL	others
Cn1cnc2c1c(=O)n(CC(=O)N(Cc1nc3ccccc3c(=O)[nH]1)CC1CCCO1)c(=O)n2C (centres undefined)	i	1.1	102
CCCCn1c(N)c(N(CC)C(=O)c2ccc(NC(=O)C3CC3)s2)c(=O)[nH]c1=O	i	0.98	101
COc1ccc(CCN2CCN(S(=O)(=O)N(C)C)CC2)cc1	i	1.1	110
CC(CCc1ccco1)NC(=O)CCn1cnc2c1c(=O)n(C)c(=O)n2C (centres undefined)	i	1.1	107
CC[C@]1(O)C[C@H]2CN(CCc3c([nH]c4ccccc34)[C@@](C(=O)OC)(c3cc4c(cc3OC)N(C)[C@H]3[C@@](O)(C(N)=O)[C@H](O)[C@]5(CC)C=CCN6CC[C@]43[C@@H]65)C2)C1	i	/	/	total CFTR fold 25 µM=0.82;total CFTR viability 25 µM=87
NC(=O)N/N=C/c1ccc([N+](=O)[O-])o1	i	/	/	total CFTR fold 25 µM=1.1&1.1;total CFTR viability 25 µM=90&89
N#C/C(=C(/O)CN1C(=O)C(=O)N(C2CCCC2)C1=O)c1nc2ccccc2[nH]1	i	1.2	110
Cc1csc(C(C#N)C(=O)CSc2nnc(C3CCCCC3)o2)n1 (centres undefined)	i	1.1	117
CC(=O)Nc1ccc(S(=O)(=O)Nc2ccc([N+](=O)[O-])cc2)cc1	i	/	/	total CFTR fold 25 µM=0.84;total CFTR viability 25 µM=75
CCOC(=O)C1=C(COC(=O)c2cccnc2OCC)NC(=O)NC1	i	0.97	104
CC(C)N1C(=O)C(=O)N(CN(C)Cc2ccc(Cl)cc2Cl)C1=O	i	0.86	97
Cc1cc(NC(=O)C(C)Sc2n[nH]c(=O)n2C2CC2)on1 (centres undefined)	i	1.1	95
CCN(Cc1ccc2c(c1)OCCO2)S(=O)(=O)Cc1ccc(C#N)cc1	i	0.97	82
Cc1ccc2c(CN3C(=O)NC(C)(c4ccc5c(c4)CCC5)C3=O)cc(=O)oc2c1 (centres undefined)	i	1	102
CC1CN(Cn2nc(-c3cccs3)n(CC3CCCO3)c2=S)CCO1 (centres undefined)	i	1	99
O=C(NCCNCC(O)COc1ccc(O)cc1)N1CCOCC1 (centres undefined)	i	/	/	total CFTR fold 25 µM=0.98;total CFTR viability 25 µM=80
S=c1n(CN2CCN(CCc3ccccc3)CC2)nc2ccccn12	i	1.1	106
CC(C)(C)NCc1ccccc1Br	i	1.3	102
C[C@]12CCC(=O)C=C1CC[C@@H]1[C@@H]2[C@@H](O)C[C@@]2(C)[C@H]1CC[C@]2(O)C(=O)CO	i	/	/	total CFTR fold 25 µM=1&1.1;total CFTR viability 25 µM=83&97
O=C1c2ccccc2NC(c2cc(Cl)ccc2OCc2cccnc2)N1C1CC1 (centres undefined)	i	1.1	91
C[N+](C)(C)C[C@H](O)CC(=O)[O-]	i	/	/	total CFTR fold 25 µM=1.1;total CFTR viability 25 µM=105
CN(C)C(=O)Cc1nc(CSc2ncnc3c2cnn3C)cs1	i	1	92
CC(C)c1ccc2c(c1)CCCN2S(=O)(=O)c1ccc2oc(=O)ccc2c1	i	1	108
Cc1nc(-c2ccc(F)cc2)sc1C(=O)OC1CCOC1=O (centres undefined)	i	0.97	116
Nc1ccc(C(=O)O)c(O)c1	i	/	/	total CFTR fold 25 µM=1.1&1;total CFTR viability 25 µM=85&98
CC1(C)CC(NC(=O)C2CC3CCC2C3)CC(C)(C)N1 (centres undefined)	i	1	100
O=C(CN(CC(=O)NC1CC1)S(=O)(=O)c1ccc(Cl)s1)NC1CC1	i	1.1	102
O=[N+]([O-])c1ccc(-c2nnco2)o1	i	0.87	81
O=S(=O)(c1cccs1)N1CCN(Cc2ccccn2)CC1	i	0.98	87
Cn1nc(C(=O)OCc2cc([N+](=O)[O-])cc3c2OCOC3)c2ccccc2c1=O	i	1.2	95
O=C(CCc1nc(-c2ccsc2)no1)NC1CCS(=O)(=O)C1 (centres undefined)	i	1	103
O=C(O)c1csc(-c2ccc(Cl)s2)n1	i	1	80
c1ccc(Cc2noc(CSc3nnc(-c4ccc[nH]4)o3)n2)cc1	i	1	87
CCN(Cc1cccs1)CN1C(=O)NC2(CCC(C)CC2)C1=O (centres undefined)	i	1	104

Filtered by structure, the compounds so far with a thiophene ring, fused or not
SMILES	total CFTR	total CFTR fold 10 ug/mL	total CFTR viability 10 ug/mL	others
NC(=O)c1ccsc1NC(=O)Cn1ccnc1	i	0.89	99
CCCC1NC(=O)N(CN2CCN(Cc3cccs3)CC2)C1=O (centres undefined)	i	1.1	93
Cc1cc(C(C)NC(=O)Cn2nnn(-c3cccs3)c2=O)c(C)s1 (centres undefined)	i	1	99
Cc1sc2ncnc(SCCCC#N)c2c1C	i	0.89	86
Cn1c(SCc2cc(-c3cccs3)on2)nnc1C(F)(F)F	i	1.1	86
CCCCn1c(N)c(N(CC)C(=O)c2ccc(NC(=O)C3CC3)s2)c(=O)[nH]c1=O	i	0.98	101
CC1CN(Cn2nc(-c3cccs3)n(CC3CCCO3)c2=S)CCO1 (centres undefined)	i	1	99
O=C(CN(CC(=O)NC1CC1)S(=O)(=O)c1ccc(Cl)s1)NC1CC1	i	1.1	102
O=S(=O)(c1cccs1)N1CCN(Cc2ccccn2)CC1	i	0.98	87
O=C(CCc1nc(-c2ccsc2)no1)NC1CCS(=O)(=O)C1 (centres undefined)	i	1	103
O=C(O)c1csc(-c2ccc(Cl)s2)n1	i	1	80
CCN(Cc1cccs1)CN1C(=O)NC2(CCC(C)CC2)C1=O (centres undefined)	i	1	104

Bioassay records from PubChem BioAssay.

These rows are one share of the data (hit frequency here may not be typical).
